Bfl-1 A1 inh = inhibitors of the anti-apoptotic protein A1, read as caspase activation; MEF A1-2A-BIM cells, Caspase-Glo 3/7 luminescence, 3 h; percent of clofoctol response, vehicle zero; caspase activation, % (test concentration not listed); hit rate 0.066% among 330,000; AID 2462;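 active means over half of replicate activation scores above 10%, or exactly half above 10 with the replicate mean above 10; inconclusive means replicate mean below 10 yet half the replicates above 10; inactive means over half of replicates below 10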;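 further: wells of about 30 µL received 50 nL stock; many hits fall short of the cut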
T cruzi inh = T. cruzi replication inhibition; T. cruzi beta-gal in NIH3T3, luminescence, 90 h; AID 1885; inhibition, % (no concentration beside the values); hit rate 1.4% among 300,000;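 active means mean inhibition across valid replicates above about 55%, limit read from the data; inconclusive means mean below that limit but half or more replicates reach it; inactive means mean below it, under half of replicates reach it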;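 further: signal also drops with host cell toxicity which is not excluded here; 0% = plate median of DMSO wells and 100% = zero luminescence signal; higher percent means less beta-gal luminescence so fewer parasites; stock transfer was 50 nL into about 50 µL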
rRNA inh HTS = selective bacterial rRNA inhibition in E. coli; E. coli WT GFP vs humanized-ribosome RFP mutants, fluorescence, 24 h; hits give low values; DMSO median 0, no signal -100; GFP signal change (wild-type ribosome), % (test concentration not listed); hit rate 1.6% among 350,000; AID 720706;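 active means significant combined selectivity score with lowered wild-type GFP, culture density cut under 30%, mutant RFP and density less affected; inactive means any of these conditions unmet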; further: one replicate is shown; some compounds called inactive have numbers as strong as hits
Vif A3G = inhibitors of Vif binding to APOBEC3G peptide, primary screen, biochemical, TR-FRET, GST-Vif 1-94, biotin-A3G peptide, dose response retest (AID 1117319); hit rate 0.57% among 260,000; TR-FRET GST-Vif / biotin-A3G peptide binding; higher % means a stronger effect; test concentration not given here; strong numbers were not always called active; inhibition, %; hits with a dose series show IC50 in µM;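 active means above the screen mean plus three standard deviations and confirmed in dose response; inconclusive means results disagree or hit not tested in dose response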;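 further: Vif residues 1-94 fused to GST binding biotinylated APOBEC3G peptide 110-148; 0% = full assay without inhibitor and 100% = GST in place of GST-Vif; retest series ran down from 100 µM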
RanGTP-Impb inh = disruptors of Ran-importin-beta complex formation – biochemical, FRET, CFP-Ran, YFP-importin-beta, homogeneous, primary screen | cell-free CFP-Ran/YFP-importin-beta FRET ratio | inhibition, % (concentration not given with the values) | hit rate 1.1% among 300,000 | AID 2216;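 active means most replicates above 15%; inconclusive means exactly half above 15%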;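 further: 0% = DMSO wells and 100% = Ran loaded with GDP instead of GTP; wells of about 40 µL received 100 nL stock; the first replicate is given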
Beta cell apopt = beta cell apoptosis inhibition; protection from apoptosis, % (no concentration beside the values); INS-1E cytokine-induced death, ATP luminescence, 48 h; percent of positive-control rescue, neutral wells zero; hit rate 0.8% among 300,000;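 active means all replicates at 75% or more, or half of them and the mean; inconclusive means half reach 75% but not the mean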;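 further: 0% = cytokine-treated negative control wells and 100% = positive control rescue; higher means more ATP so stronger rescue from cytokine killing; wells of about 40 µL received 100 nL stock; the first replicate is given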
MLL AF4-AF9 inh = blocks AF4 peptide binding to human AF9; inhibition, % at 10 µM; P42568; hit rate 0.47% among 350,000; AlphaScreen, biotin-AF4 peptide binding to FLAG-AF9;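 active means every replicate reaching a set inhibition limit, whatever the replicate mean, cut at about 25% in these data; inconclusive means mean inhibition reaches that limit but some replicates miss it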;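 further: 0% = plate neutral control median and 100% = total signal loss; the record names both 10 and 1 µM as test concentration; the first replicate is given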
Target sequence (P42568 whole entry, looked up): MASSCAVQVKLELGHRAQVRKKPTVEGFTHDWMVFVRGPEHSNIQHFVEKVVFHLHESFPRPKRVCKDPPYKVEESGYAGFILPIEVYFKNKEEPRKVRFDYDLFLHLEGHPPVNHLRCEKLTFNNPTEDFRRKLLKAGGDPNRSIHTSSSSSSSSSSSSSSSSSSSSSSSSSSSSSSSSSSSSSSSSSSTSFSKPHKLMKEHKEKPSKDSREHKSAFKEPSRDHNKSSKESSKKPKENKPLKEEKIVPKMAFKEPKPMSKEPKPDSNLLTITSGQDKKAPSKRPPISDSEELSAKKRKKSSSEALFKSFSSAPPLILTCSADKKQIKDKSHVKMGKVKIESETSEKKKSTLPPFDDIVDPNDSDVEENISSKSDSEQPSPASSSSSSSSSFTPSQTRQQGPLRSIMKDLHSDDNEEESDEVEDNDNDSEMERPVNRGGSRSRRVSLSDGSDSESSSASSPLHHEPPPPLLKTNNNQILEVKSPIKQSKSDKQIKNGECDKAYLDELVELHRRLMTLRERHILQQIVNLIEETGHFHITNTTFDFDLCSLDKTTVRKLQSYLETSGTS
Calb FLC = C. albicans growth modulation with fluconazole. growth inhibition, % (concentration not given with the values). AID 1979. hit rate 0.57% among 300,000. C. albicans CaCi-2 (fluconazole-resistant clinical isolate) + fluconazole, Alamar Blue growth, 48 h;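 active means most replicates above 75%; inconclusive means exactly half above 75%; inactive means most below 75%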;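 further: all wells also contain fluconazole at 8 µg/ml as a sub-toxic cotreatment; 0% = median of DMSO wells and 100% = median of geldanamycin control wells; wells of about 8 µL received 7.5 nL stock; the first replicate is given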
rRNA inh HTS OD600 = further read-out of rRNA inh HTS, marked with its call; OD600 change, %; measured here: OD600 growth;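 optical density of the mix in the first replicate; 0 = DMSO median and -100 = no signal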
rRNA inh HTS RFP = also measured in rRNA inh HTS; calls as there; RFP signal change, %; measured here: RFP humanized mutant strains;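 first replicate; 0 = DMSO median and -100 = no signal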
An asterisk follows results filed as active; u = inconclusive; x = not tested or not shown; & = joins results of further samples. These rows are one share of the data (hit frequency here may not be typical).

SMILES	Bfl-1 A1 inh	T cruzi inh	rRNA inh HTS	rRNA inh HTS OD600	rRNA inh HTS RFP	Vif A3G	RanGTP-Impb inh	Beta cell apopt	MLL AF4-AF9 inh	Calb FLC
CC(C)NS(=O)(=O)c1ccc2c3c(cccc13)CC2	-1.0	1.7	3.0	10.9	-1.0	-1.8%	-1.1	-4.2	-1.6	-18.3
NNC(=O)CNS(=O)(=O)c1ccc([N+](=O)[O-])cc1	0.7	-1.7	12.0	23.1	-1.0	x	3.1	-3.0	-1.5	9.5
C=C1N(c2cccc(Cl)c2)C(=O)OC1(C)C	-0.6	-0.8	16.2	15.4	1.8	x	0.5	1.7	-1.4	-29.6
Cc1cc(N2CCC(N(C)C3CCCC3)CC2)nc2cc(O)ccc12	0.2	-27.0	-18.9	-29.1	-7.7	1.1%	0.8	x	1.4	-5.8
COc1ccc2nc(C)cc(SCC(=O)OC(C)C)c2c1	-0.6	5.6	-10.0	-16.6	-5.6	8.2%	3.7	-3.1	-1.1	50.8
COC(c1ccccc1)c1nnc(CCC(=O)NCc2cccc(-n3cccn3)c2)o1 (stereo not given)	1.9	-3.7	7.3	3.7	2.1	-1.1%	u	-1.8	-4.7	5.2
COc1cccc(NC(=O)CSc2nnnn2C2CCCC2)c1	0.2	9.2	-3.4	0.2	4.0	x	3.0	4.1	1.4	1.2
Cc1sc2ncnc(SCC(=O)NCC3CCCO3)c2c1C (stereo not given)	0.9	x	5.5	-0.9	0.0	x	x	-0.5	-0.3	x
O=C(Nc1ccc2c(c1)nc1n2CCSC1)c1ccco1	-1.7	-9.1	x	x	x	1.1%	u	9.5	x	17.3
c1cncc(-c2nn3c(Cn4cnc5ccccc54)nnc3s2)c1	-0.5	7.0	x	x	x	2.9%	-2.5	-14.7	x	4.0
CCN(CC)C(=O)C1CCCN(c2ncnc3c2cnn3-c2ccc(Cl)cc2)C1 (stereo not given)	0.2	28.7	-51.8	-71.8	-10.9	x	u	-5.8	-12.9	5.6
O=C(NCCc1ccc(Cl)cc1)C1CCN(S(=O)(=O)c2cccs2)CC1	0.7	-5.5	x	x	x	-6.3%	6.6	2.9	x	-7.7
COc1nc(Nc2ccc(O)cc2)nc(OC(C(F)(F)F)C(F)(F)F)n1	1.8	-38.9	x	x	x	25.0%	-0.3	1.6	x	17.8
Cc1cccc(OCCCC(=O)NCc2ccco2)c1	0.2	-15.1	-4.2	-3.4	2.4	8.5%	3.3	-5.6	2.1	4.7
O=C(CCC(=O)N1CCCCCC1)NCc1ccc(F)cc1	0.8	0.2	1.2	11.0	-2.3	-2.3%	0.5	-5.0	-2.2	9.7
CCC1CCCCN1C(=O)CSc1nnc(-c2cccs2)o1 (stereo not given)	-0.2	4.6	x	x	x	11.1%	0.1	x	x	-2.2
O=C(COC(=O)Cc1ccccc1F)Nc1cccc(S(=O)(=O)NC2=NCCCCC2)c1	0.9	-7.9	-9.0	-9.9	1.3	14.8%	-2.8	-7.8	0.8	7.2
Cc1[nH]c2ccccc2c1C(=O)CSc1ccccn1	-1.3	3.9	-25.3	3.8	22.3	5.8%	-3.4	-4.5	-2.7	45.6
COc1ccc(S(=O)(=O)Nc2ccc3c(c2)C(=O)N([C@H](C)CO)C[C@H](C)[C@@H](CN(C)C(=O)Nc2ccc4c(c2)OCO4)O3)cc1	0.2	x	0.9&1.7	0.2&2.5	-2.0&-4.8	x	x	-1.3	1.8	x
COc1cccc(NC(=O)c2cccc(C(=O)Nc3cccc(OC)c3)c2)c1	1.1	-21.6	6.7	10.1	7.9	x	-0.3	10.3	4.0	1.6
O=S(=O)(Nc1ccc(N2CCCCC2)cc1)c1ccccc1	1.2	7.9	x	x	x	13.3%	-0.8	4.2	x	5.6
O=C(Nc1ccc(Br)cc1)c1cc(-c2cccs2)on1	u	-12.7	6.3	19.1	-2.0	x	-1.1	-1.1	0.7	-6.0
Cc1cc(C)c2[nH]c(=O)c(CN(Cc3cccs3)C(=S)NCC3CCCO3)cc2c1 (stereo not given)	0.3	10.8	x	x	x	-54.6%	5.6	6.5	x	29.5
Cc1ncc([N+](=O)[O-])n1S(=O)(=O)c1cc(Cl)ccc1Cl	-0.4	-9.9	4.1	9.9	-3.8	-5.8%	-0.5	-4.9	-4.5	-4.0
Cc1cc(S(=O)(=O)NC(C)C)ccc1OCC(=O)Nc1ccc2c(c1)OCCO2	1.0	3.4	-10.7	-7.1	-0.3	-5.6%	0.1	-0.3	-0.7	-5.7
CCOc1ccc(CCNC(=O)c2cccnc2N2CCCC2)cc1OCC	0.2	-10.7	3.2	4.4	-2.8	11.4%	-0.9	-4.1	x	-2.7
O=C(COC(=O)c1c[nH]c(=O)[nH]c1=O)NCc1ccccc1	u	-11.0	x	x	x	2.1%	2.7	-14.7	x	-0.9
Cn1c2ccccc2n2c(=O)c(=O)n(CC(=O)N3CCCc4ccccc43)nc12	0.4	-7.3	x	x	x	0.8%	4.7	0.2	x	6.8
O=C(CSc1nnc(-c2cccnc2)n1Cc1ccco1)N1CCc2ccccc21	-0.2	2.8	x	x	x	1.4%	-0.7	-2.4	x	8.2
COc1ccc(-c2csc(N3C(=O)C4C5c6ccccc6C(c6ccccc65)C4C3=O)n2)cc1 (stereo not given)	-0.2	14.7	x	x	x	x	2.3	-1.1	x	8.5
O=C(NCCCN1CCN(Cc2ccccc2)CC1)C1CCN(c2nnc(-n3cccc3)s2)CC1	0.1	23.1	x	x	x	-5.0%	3.6	-6.2	x	-0.3
CCOc1ccc(C2C3=C(CCCC3=O)Nc3ccc4ncccc4c32)cc1 (stereo not given)	-0.3	12.7	-12.8	-7.4	12.6	-0.1%	4.0	3.2	-5.6	-2.3
Cc1ccc(CNC(=O)C2CCN(S(=O)(=O)c3ccc4c(c3)OCCCO4)CC2)cc1	1.0	-3.1	x	x	x	x	-1.4	-5.7	x	-5.4
COC(=O)c1ccc(CN(c2ccccc2OC)S(=O)(=O)c2cccs2)o1	0.1	9.6	x	x	x	0.9%	5.2	-3.4	x	8.8
CCNc1nc(NC(C)(C)C)nc(N(CC)n2cnnc2)n1	0.0	14.9	x	x	x	9.3%	3.2	1.2	x	-26.3
CCCSc1nnc(NC(=O)c2sc3nc(-c4cccs4)ccc3c2N)s1	0.4	0.9	x	x	x	-0.7%	-3.1	-1.8	x	9.3
COc1ccc(CCN(C)C2CCCN(S(C)(=O)=O)C2)cc1OC (stereo not given)	0.0	0.4	5.1	10.9	1.0	5.4%	u	x	3.3	6.4
COc1cccc2c(=O)n(CC(=O)NC3CCCCC3)ccc12	0.3	0.7	10.6	11.4	-1.1	-3.6%	1.3	-4.9	9.6	5.9
COc1cc(-c2nc(CN3CCCCC3CCNC(C)=O)c(C)o2)ccc1F (stereo not given)	-1.3	14.7	10.3	13.6	3.0	u	0.8	-1.6	1.3	-5.0
Cc1ccc(S(=O)(=O)N(C)c2ccc(C(=O)Nc3ccccc3C(=O)N3CCOCC3)cc2)cc1	1.8	2.1	3.0	-11.8	1.3	-0.5%	u	-4.8	0.1	41.7
CC1=C(/C=C/C(C)=C/C=C/C(C)=C/C=C/C=C(C)/C=C/C=C(C)/C=C/C2=C(C)CCCC2(C)C)C(C)(C)CCC1	0.7	4.9	x	x	x	x	3.8	-5.0	x	2.6
CCCCNc1nc2cccnc2s1	-0.8	-9.7	6.3	-8.7	-2.1	-12.7%	-1.9	-3.7	x	-6.4
Cc1cc(NC(=O)/C=C/c2ccc(Cl)cc2)no1	-2.6	-12.4	x	x	x	x	u	2.0	x	-1.8
CSc1ccc(S(=O)(=O)NCC(=O)OCC(=O)NCC2CCCO2)cc1[N+](=O)[O-] (stereo not given)	u	-4.7	2.0	5.4	-1.4	1.7%	-1.4	-3.1	6.2	x
CCN1C(=O)/C(=C\N2CCN(C(=O)c3ccco3)CC2)SC1=S	0.8	3.3	13.6	4.3	0.7	-7.9%	-1.6	-5.4	x	-1.2
CCc1cccc2c(C(=O)CSc3nncn3C)c[nH]c12	-0.3	-3.4	0.5	9.7	-2.1	3.4%	-6.3	-2.6	-6.8	7.3
Cc1cc2c(cc1S(=O)(=O)N1CCN(c3cccc(C)c3C)CC1)OCCN2C	0.3	4.2	-4.9	5.4	8.0	x	u	-4.6	4.9	2.7
Oc1c(C(Nc2ccccn2)c2ccccn2)ccc2cccnc12 (stereo not given)	-0.1	55.4*	-51.5	-78.2	-26.6	8.7%	-5.2	87.0*	x	3.2
C=C(C)Cn1c(CCn2c3ccccc3c3ccccc32)n[nH]c1=S	0.1	-5.4	x	x	x	x	9.1	-1.1	3.9	7.7
O=[N+]([O-])c1cccc(CN2CCN(Cc3ccco3)CC2)c1	-0.4	12.9	3.8	5.5	5.7	-2.2%	u	0.8	-0.3	x
CCN(CC)NC(=O)Nc1ccccc1	0.4	-7.3	14.4	8.4	-2.7	-2.4%	u	x	0.7	9.3
CC12CCC(=O)N1C(C(=O)NCc1ccccc1Cl)CS2 (stereo not given)	0.4	-14.4	7.6	7.8	-2.1	3.4%	1.6	0.7	0.5	-4.9
O=C(CSc1nnc(-c2ccccc2)n1-c1ccccc1)N1c2ccccc2Sc2ccccc21	0.5	-11.2	x	x	x	-8.9%&5.9%	-4.4	7.1	x	7.3
Cc1ccc(S(=O)(=O)N2CCN(c3ccc(N4CCOCC4)nn3)CC2)cc1[N+](=O)[O-]	1.3	-6.2	11.9	18.6	-2.0	-6.0%	5.2	x	-11.4	-16.3
Cc1cccc(-n2c(N)cc(=O)nc2SCC(=O)Nc2cc(C)on2)c1	0.0	2.3	x	x	x	12.2%	u	-3.5	x	-1.6
Cc1nc(N2CCN(c3ccccn3)CC2)c2c(C)c(C(=O)Nc3ccc(F)cc3)sc2n1	0.1	u	-11.6	-9.2	19.9	-12.2%	1.0	14.3	2.2	-0.5
CCOC(=O)C(Sc1cc(-c2ccccc2)nc2ncnn12)C(C)=O (stereo not given)	0.7	-27.5	8.8	3.7	-0.8	x	-0.1	-5.4	-2.4	-3.8
O=C(O)C1CCN(C(=O)CSc2nnc3ccccn23)CC1	1.8	x	9.0	11.2	-2.5	x	x	-6.5	-1.2	x
CC1(CC(=O)N/N=C/c2cc([N+](=O)[O-])c(O)cc2O)OCCO1	-2.0	-18.9	-0.4	9.3	-1.0	x	0.8	-1.4	-4.0	-0.4
O=S(=O)(Nc1ccc(-n2cnnn2)cc1)c1cccs1	1.2	x	x	x	x	1.2%	x	-5.3	-1.3	x

Bioassay records (PubChem)
